Compound activity deposited in PubChem BioAssay by National Center for Advancing Translational Sciences (NCATS).
D2 potentiator: potentiates the human D2 dopamine receptor allosterically; potentiation, % (test concentration not listed); DiscoveRx D2 beta-arrestin cells, luminescence, 90 min; 100% = 57 uM dopamine signal; actives 0.23% (n = 360,000); AID 624464; active = potentiation of 50% or more; inconclusive = 30% to 50%; inactive = 30% or less;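 note: compound concentration not given in the record; tested on top of an EC20 dose of dopamine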
Target sequence (P14416 whole entry, looked up): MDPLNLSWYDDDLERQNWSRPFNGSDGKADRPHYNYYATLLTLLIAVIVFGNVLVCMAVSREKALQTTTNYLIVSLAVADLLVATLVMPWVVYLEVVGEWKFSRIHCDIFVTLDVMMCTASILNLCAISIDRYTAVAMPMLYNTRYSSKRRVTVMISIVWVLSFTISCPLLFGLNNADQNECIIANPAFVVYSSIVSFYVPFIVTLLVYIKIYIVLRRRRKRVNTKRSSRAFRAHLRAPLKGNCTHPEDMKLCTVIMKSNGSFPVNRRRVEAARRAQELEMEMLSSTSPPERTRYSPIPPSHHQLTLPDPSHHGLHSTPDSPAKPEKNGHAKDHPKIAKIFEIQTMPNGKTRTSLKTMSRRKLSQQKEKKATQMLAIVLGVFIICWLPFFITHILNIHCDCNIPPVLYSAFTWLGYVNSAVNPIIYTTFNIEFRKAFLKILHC
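PathHunter beta-arrestin assay in DiscoveRx D2 cells. Compounds were added with an EC20 of dopamine (50 nM final) for 90 min at 37 deg C. Luminescence was read 1 h after detection reagent, with 57 uM dopamine as the EC100 control.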
PINK1 modulator: PINK1 expression modulation; PINK1 immunofluorescence, high-content cytometry, 24 h; AID 624263; actives 0.2% (n = 410,000); Potency, µM (series often up to 76.6 µM), inactives show top-dose activation (PINK1 increase), most hits filed as activators; active = well fitted activation curve with a large enough effect; inconclusive = small, poorly fitted or top-dose-only effect; inactive = flat fitted curve, though single readings scatter; cell line not stated here;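 note: potency is the fitted concentration of half-maximal effect; % of control where 0% means no effect; nearly all actives have a fitted effect of over 65% in size; a mitochondrial uncoupler was the plate control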
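Compound titrations (5 concentrations, 24 h) on a stable cell line; DMSO and CCCP controls. Endpoint: fixed-cell PINK1 immunofluorescence with mitochondrial, cell and nuclear markers, scanned by microplate cytometer.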
Six1-Eya2 blk: blocks human Six1 binding to Eya2. Q15475+O00167. AlphaScreen GST-Six1/His-Eya2 binding, biochemical; hits give low values; control for the full effect not named in the record. activity change, % (concentration not given with the values). actives 0.56% (n = 360,000); in the data active = activity change below about -65%; inconclusive = about -30% to -65%; inactive = above about -30%; note: % is set by controls: 0 for no effect and ±100 for the full control effect
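Homogeneous AlphaScreen proximity assay pairing GST-Six1 with His-tagged Eya2 (added as 5X mix: 250 nM and 500 nM) in 50 mM Tris pH 8.0, 300 mM NaCl, 1 mM TCEP. Glutathione donor and nickel acceptor beads; 1 h, 37 °C, dark.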
TRPML1 agonist: agonists of human TRPML1 channel; AID 624414; TRPML1-expressing cells, Ca2+ dye fluorescence, FDSS; host cell line not named in the record; reference of the full effect not given here; actives 0.12% (n = 410,000); activation, % (no concentration beside the values); Q9GZU1; in the data active = activation above about 50%; inconclusive = about 30% to 50%; inactive = below about 30%; note: 0% is about no effect; the text of the record puts the active cut at 80%
Target sequence (Q9GZU1 whole entry, looked up): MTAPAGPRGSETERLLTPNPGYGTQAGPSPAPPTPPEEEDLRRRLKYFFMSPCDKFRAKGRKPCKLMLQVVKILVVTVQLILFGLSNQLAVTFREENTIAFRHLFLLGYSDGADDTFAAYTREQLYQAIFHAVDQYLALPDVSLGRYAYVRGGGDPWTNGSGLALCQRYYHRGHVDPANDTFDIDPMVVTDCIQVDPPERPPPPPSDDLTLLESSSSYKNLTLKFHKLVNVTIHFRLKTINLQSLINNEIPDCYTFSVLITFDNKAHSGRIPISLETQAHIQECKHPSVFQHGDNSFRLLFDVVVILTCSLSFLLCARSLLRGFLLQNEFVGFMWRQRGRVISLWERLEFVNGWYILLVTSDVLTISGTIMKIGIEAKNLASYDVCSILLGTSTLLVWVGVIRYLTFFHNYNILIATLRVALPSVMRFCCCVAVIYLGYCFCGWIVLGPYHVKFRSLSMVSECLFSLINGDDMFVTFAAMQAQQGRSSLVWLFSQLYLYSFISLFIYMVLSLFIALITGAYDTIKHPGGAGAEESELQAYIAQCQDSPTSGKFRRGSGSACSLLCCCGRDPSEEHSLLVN
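Tetracycline-induced TRPML1-DL cells are seeded and incubated overnight before loading with a no-wash Ca2+ dye and quencher. Agonist activity is taken from the 110 s fluorescence read following compound pin-transfer on an FDSS, before EC80 54-4 challenge.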
D2 ag: agonists of human D2 dopamine receptor (beta-arrestin). activation, % (no concentration beside the values). DiscoveRx PathHunter D2 beta-arrestin, luminescence, 90 min; 100% = 57 uM dopamine signal. AID 624465. actives 0.084% (n = 360,000); in the data active = activation above about 40%; inconclusive = about 15% to 40%; inactive = below about 15%; note: compound concentration not given in the record; the text of the record calls up to 30% inactive
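Agonist mode: compounds alone added to overnight-plated D2 PathHunter cells for 90 min at 37 C, with 57 uM final dopamine (EC100) defining full response. Beta-arrestin recruitment detected by chemiluminescent reagent, read after 1 h at ambient temperature.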
TRPML1 inh: blocks the human TRPML1 channel; actives 0.02% (n = 390,000); activity change, negative = inhibition, % (concentration not given with the values); TRPML1-inducible cells, Ca2+ dye fluorescence, FDSS; hits give low values; inhibition of EC80 agonist-evoked calcium signal; Q9GZU1; AID 624415; in the data active means activity change below about -50%; inconclusive means about -30% to -50%; inactive means above about -30%;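 note: stimulus is agonist 54-4 at its EC80 concentration; % is set by controls: 0 for no effect and ±100 for the full control effect; compound concentration not given in the record; the text of the record puts the active cut at -80%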
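Tet-induced TRPML1-DL cells loaded with Ca8 no-wash calcium dye were read kinetically on FDSS. Compound addition was followed by EC80 agonist 54-4 (4 uM final); inhibition was read over 110 s.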
Starred values were filed as active, the others as inactive; ? = inconclusive; · = no result given; & = joins results of further samples; [ ] = remark or other dose.

SMILES	D2 potentiator	PINK1 modulator	Six1-Eya2 blk	TRPML1 agonist	D2 ag	TRPML1 inh
Cc1cc(NC(=O)c2ccc3c(c2)C(=O)N(Cc2ccccc2)C3=O)no1	1.5	13.1%	-3.9	-0.3	-4.9	27.8
C=CCOC(=O)/C(=C\c1ccccc1)NC(=O)c1ccc(C)cc1	-3.3	1.1%	-3.4	1.3	-6.4	-12.2
COc1ccc(-n2cnc3cc(C(=O)NC4CCCC4)ccc32)cc1	-5.3	-0.8%&0.2%	1.2	-0.2&-0.6	-1.6	-7.9&13.8
CC(C)CN(C(=O)c1ccc(Br)o1)C1CCS(=O)(=O)C1 (stereo unspecified)	-9.6	-0.2%	2.2	0.1	-5.4	-0.5
COc1ccc(NCc2nnc(SCC(=O)c3ccc(OC)cc3)o2)cc1	-6.8	-0.7%[38.3 µM]	-15.9	0.3	-0.9	9.9
Cc1nc2cc(N3CCOCC3)c(NC(=O)C3CC3)cc2c(=O)n1Cc1ccccc1	-9.3	4.2%	-12.2	-0.9	-4.9	-8.6
COC(=O)/C=C/C(=O)Nc1ccc(O)c(Cl)c1	26.6	1.1%	-3.2	-0.4	11.9	-8.5
Cc1ccc(CCNC(=O)C2CCC(=O)N2Cc2cccnc2)cc1 (stereo unspecified)	-3.5	-4.2%	10.9	-0.3	2.5	20.6
Cc1ccc(C(=O)NC(=S)Nc2cccc3nsnc23)cc1	4.1	9.9%	-3.8	0.4	6.9	13.4
CC(C)[C@H](NC(=O)N1c2ccccc2NC(=O)[C@@H]1C(C)C)C(=O)N[C@H](Cc1ccccc1)C(=O)O	-13.0	0.9%	0.7	·	-2.6	·
C[C@@H]1COc2cc(N(C)CCO)ccc2S(=O)(=O)N1	·	0.3%	7.2	0.9	·	·
O=C(COC(=O)c1ccc(O)cc1O)NC1CCS(=O)(=O)C1 (stereo unspecified)	-2.2	0.9%	0.3	0.8	-3.3	11.3
O=C(Cn1nc(Cl)nc1Cl)c1cc2ccccc2oc1=O	-2.1	1.1%	2.7	0.7	-2.4	14.2
Cc1ccc(-n2c(C)cc(C(=O)Cn3nc(C(=O)O)c4ccccc4c3=O)c2C)cc1	-8.8	0.9%	-22.8	0.9	1.2	-4.2
CC(/C=N/NC(=O)c1cc(-c2cccnc2)nc2c1c(C)nn2-c1ccccc1)=C\c1ccccc1	-6.7	2.6%	4.3	0.6	1.0	6.8
CC1(C)CC(=O)C2=C(C1)OC(/N=C/N1CCCC1)=C(C#N)C2c1ccccc1 (stereo unspecified)	-5.7	-1.2%	0.5	-0.2	-6.8	5.3
Cc1nc(SCC(=O)N(C)Cc2ccco2)c2c(C)c(C)sc2n1	-4.4	-1.2%	-13.3	4.1	-4.3	9.0
Cc1ccc(N(CC(=O)NCCc2ccccc2)C(=O)CCC(=O)Nc2cc(C)ccn2)cc1	-11.7	2.5%	9.0	-0.9	-6.3	19.1
O=C(CSc1nnc(CNC(=O)c2ccccc2F)o1)Nc1ccc2c(c1)OCCO2	-5.8	0.0%	2.5	-0.1	-4.6	7.8
Cc1cc(N2CCC(C)CC2)nc2ccc(NC(=O)Cc3ccccc3Br)cc12	·	13.9%	·	0.1	·	3.4
CCn1c(=O)c(=O)n(CC)c2cc(N3CCCCC3)c(NC(=O)c3ccc(OC)c(OC)c3)cc21	·	-0.5%	·	0.8	·	42.0
Cc1nc2nc(-c3ccccc3)nn2c(C)c1C	-5.5	1.2%	2.3	-0.7	-3.4	-13.5
CCC(C)(C)C1CCC2(CC1)NC(=O)N(CC(=O)NCCCc1ccccc1)C2=O (stereo unspecified)	-10.8	1.4%	-16.2	0.5	10.5	69.7
Cc1ccc(O)c(NC(=O)c2cc(-c3ccc4c(c3)OCO4)on2)c1	·	0.6%	·	-1.2	·	-15.6
COc1ccccc1C(C)NC(=O)c1ccccc1SCC(=O)N1CCCC1 (stereo unspecified)	-1.5	-0.8%	9.1	0.0	-1.3	6.6
COc1ccc(OCCSc2nc3ccccc3n2CCC(=O)O)cc1	0.9	0.0%	2.2	0.3	-0.5	-2.1
Cc1ccc(C)c(S(=O)(=O)N2CCN(C(=O)c3ccc4ccccc4n3)CC2)c1	-0.8	-0.8%	-17.3	3.8	-0.6	13.8
Cc1cccc(-c2noc(CN(C(=O)COc3ccc(C(C)C)cc3)C(C)C)n2)c1	·	6.5%	·	1.2	·	-20.5
CS(=O)(=O)N(CC(=O)Nc1ccc2c(c1)OCO2)Cc1ccc(Cl)cc1	-0.4	1.7%	12.0	-0.3	-2.3	-1.8
CCC1(c2ccccc2)NC(=O)N(CC(=O)NCc2ccccc2OC)C1=O (stereo unspecified)	-3.8	-1.1%	2.8	-0.2	-0.5	18.8
O=C(N/N=C1\CCS(=O)(=O)c2ccc(F)cc21)c1ccc(O)cc1	-0.9	1.6%	-1.5	0.4	2.7	-3.0
CCOC(=O)Cn1nnc(-c2ccc(SC)cc2)n1	-4.7	-1.2%	5.7	-0.7	2.1	15.8
O=C(CSc1nnc(CNC(=O)c2ccccc2)n1-c1cccc(Cl)c1)Nc1ccccc1F	·	0.9%	·	1.4	·	-4.8
CCN(CC(=O)Nc1ccc(Cl)c(S(=O)(=O)N(C)C)c1)Cc1nc2ccccc2c(=O)[nH]1	-27.4	0.6%	-5.2	-0.4	-4.7	-6.8
CC(C)(C)OC(=O)N1CCC(C(=O)Nc2ccc(C(=O)NC3CC3)cc2)CC1	·	0.1%	0.3	-0.5	-0.7	-10.7
COc1ccc(Cn2c(C3CC3)nc3ccc(NC(=O)c4cccnc4)cc3c2=O)cc1	-0.9	4.1%	-27.8	1.3	1.9	-10.8
Cc1c(NC(=O)CCSc2ccc(Cl)cc2)c(=O)n(-c2ccccc2)n1C	-5.3	0.2%	-6.8	-0.9	-5.8	-5.7
COC(=O)c1ccc(NC(=O)c2cc(S(=O)(=O)N3CCc4ccccc43)cn2C)cc1	·	4.9%	·	0.6	·	-5.5
C/C=C1\COC(C(=O)NCc2cccc(OC)c2OC)(C(F)(F)F)C=C1C=C1CCCCC1 (stereo unspecified)	-34.0	9.9%	9.1	2.3&1.0	-0.2	0.8&-18.9
O=C1Nc2ccccc2N(O)N1c1ccc(S(=O)(=O)Nc2ccccn2)cc1	-14.1	-2.0%	12.8	-0.1	-2.3	-11.9
COC1=C(Nc2ccc(OC)cc2)C(=O)c2ccccc2C1=O	25.4	?	-75.3*	1.8	0.4	-11.9
Cc1ccc(Cn2ccc(C3CC3)n2)cc1	1.5	1.4%	7.3	0.6	-4.5	-17.2
COc1cccc2cc(C(=O)C3=C(O)C(=O)N(c4cc(C)on4)C3c3cccs3)oc12 (stereo unspecified)	-2.8	-0.2%	-18.7	1.6	-4.8	17.2
CC(=O)Nc1ccc(NC(=O)C(C)OC(=O)C2CC3C=CC2C3)cc1 (stereo unspecified)	-9.7	-0.3%	11.0	-0.2	-0.1	5.9
CCSc1ncc(Cl)c(C(=O)N(Cc2ccc(C(C)(C)C)cc2)C2CCS(=O)(=O)C2)n1 (stereo unspecified)	·	1.2%	·	2.1	·	6.8
COC(=O)C1C(c2ccc(OC)c(OC)c2)NC(c2ccc(OC)c(OC)c2)C(C(=O)OC)S1(=O)=O (stereo unspecified)	-13.4	-1.3%[38.3 µM]	0.9	-0.5	-0.7	-3.7
COc1ccc(NS(=O)(=O)c2ccc(NC(=S)NC(=O)c3ccc(Br)cc3)cc2)nn1	2.8	-1.2%	-10.3	-0.1	-7.5	-20.0
C=CCn1c(SCC(=O)N2CCCCC2)nc(O)cc1=O	2.0	?	-2.1	-0.1	-2.1	-7.4
Cc1cc(N2CCN(c3ccc(F)cc3)CC2)n2cnnc2n1	·	0.4%	·	-0.2	·	28.2
Cc1ccc(NC(=O)CCC(=O)NNC(=O)c2cccc([N+](=O)[O-])c2)cc1C	-19.1	?	2.9	0.8	0.4	-9.7
Cn1nnnc1SCCCNCc1cccc(OCc2ccccc2)c1	·	1.7%	·	-0.4	·	-11.0
CCC1([N+](=O)[O-])COC(C=Cc2ccccc2)OC1 (stereo unspecified)	-7.0	4.9%	5.6	-0.3	0.0	6.4
O=C(NCc1ccccc1Cl)c1cccc(C(F)(F)F)c1	-5.9	2.5%	14.9	1.8	-6.0	37.4
CC1CCCC(NC(=O)c2ccc3c(c2)OCO3)C1C (stereo unspecified)	-4.0	0.7%	1.0	0.6	-1.4	14.6
O=C1N/C(=C/c2cccs2)C(=O)N1Cc1ccc(Br)cc1	-0.3	?	6.3	-0.7	4.5	9.0
CCOC(=O)c1cnn2c(C(F)(F)F)cc(-c3cn(C)nc3C)nc12	20.7	-0.2%	-9.8	0.1	0.3	55.6
Cc1cccc(N2CCN(C(=O)COc3ccc4c(c3)CCC4)CC2)c1C	3.6	2.6%	12.7	2.4	-1.0	-2.7
Cc1ccc2nc(NC(=O)CN3CCN(c4ccccn4)CC3)sc2c1	-3.4	2.5%	7.8	1.3	-3.7	14.6
CC1CCCCC1NC(=O)c1cc2ccccc2o1 (stereo unspecified)	-10.9	1.6%	4.8	2.3	-0.1	1.5
C=CCn1c(=O)c2ccc(C(=O)NCc3ccccc3)cc2n(Cc2ccccc2Cl)c1=O	14.4	3.9%	12.1	0.1	-2.7	-9.8
Next part.
SMILES	D2 potentiator	PINK1 modulator	Six1-Eya2 blk	TRPML1 agonist	D2 ag	TRPML1 inh
CCN(CC)CCN1C(=O)C(O)=C(C(=O)c2cc3ccccc3o2)C1c1cccnc1 (stereo unspecified)	5.6	0.9%	-1.6	0.1	-2.3	11.9
O=C(CCC(=O)Nc1cccc([N+](=O)[O-])c1)N/N=C/c1cccs1	-13.6	-0.4%	-2.7	1.3	-2.4	15.4
Cn1c(=O)c2sccc2n2c(CCCC(=O)Nc3ccccc3)nnc12	-2.8	4.9%	-2.3	3.5	-3.6	-13.5
COc1ccc(C(=O)Nc2ccc(C(=O)NCCc3ccc(OC)c(OC)c3)cc2)cc1	-4.9	4.4%	3.9	1.1	-1.1	-20.7
O=C(CN1C(=O)CCSc2ccccc21)Nc1cccc(F)c1	-3.2	4.2%[38.3 µM]	0.0	-0.3	-1.7	4.2
CC(C)NC(=O)CC(=O)N/N=C/c1ccccc1F	-2.0	-0.7%	-5.3	-1.4	-4.0	17.4
CCCCCN(C(=O)CCC(=O)OCc1ccc(C(C)C)cc1)c1c(N)n(CCCC)c(=O)[nH]c1=O	-17.4	-1.9%	0.4	0.3	-2.7	-2.5
COc1ccc(CN(C)C(=O)CCN=C2NS(=O)(=O)c3ccccc32)c(OC)c1	-4.4	0.6%	-0.6	0.9	0.5	-4.7
Cc1ccc([N+](=O)[O-])cc1NC(=O)CNC1CCCCC1	-24.3	0.8%	-7.6	0.2	-1.5	4.0

Nothing new here: entries from further up.
SMILES	D2 potentiator	PINK1 modulator	Six1-Eya2 blk	TRPML1 agonist	D2 ag	TRPML1 inh
Cn1c(=O)c2sccc2n2c(CCCC(=O)Nc3ccccc3)nnc12	-2.8	4.9%	-2.3	3.5	-3.6	-13.5
COc1ccc(C(=O)Nc2ccc(C(=O)NCCc3ccc(OC)c(OC)c3)cc2)cc1	-4.9	4.4%	3.9	1.1	-1.1	-20.7

An unsorted share of the library; overall some 1% were active at least once.
